# Screens deposited in PubChem by several laboratories.
# Mtb bLac sens: beta-lactam sensitization of Mtb H37Rv. M. tuberculosis H37Rv growth with meropenem, percent inhibition; hits of this screen are not shown here. inhibition, % at 25 µM. 330,000 tested, 0.27% active;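 active = about 74% or more and at least 40 points above the plate without the antibiotic, then above 30% in a dose series; inconclusive = first-round hits that could not be retested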;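 also: growth measured after seven days incubation then overnight dye step; 0% = bacteria only wells and 100% = bacteria with antibiotic; twin plates without the antibiotic show which effects depend on it; some results filed as inactive read as strong as hits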
# YopH inh: YopH (Yersinia) phosphatase inhibition. fluorescence Ex485/Em525. inhibition, %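 (about 10 µM by stock and volumes)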. 140,000 tested, 0.16% active;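 active = inhibition of 50% or more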;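 also: controls were vehicle for no effect and minimum signal wells for full effect; inactives centre near -20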
# Arbovirus anti: antivirals against arbovirus infection; arbovirus infection cell-based antiviral screen; inhibition, % at 10 µM; 200,000 tested, 0.37% active; AID 1251;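 active = inhibition from about 30%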;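 also: bluetongue infection of BSR cells; cell survival read as ATP light after 72 h; 0% = infected wells without compound and 100% = uninfected wells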
# Mtb growth: M. tuberculosis H37Rv growth inhibitors, H37Rv strain (AID 1626). M. tuberculosis H37Rv growth inhibition; higher % means a stronger effect. 220,000 tested, 0.95% active. inhibition, % at 10 µM; hits with a dose series show IC50 in µM;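 active = confirmed in a dose series; inconclusive = inhibition above 80% but not taken into the dose series; inactive = below 80% or under 30% at every dose of the series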;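 also: bacteria incubated seven days before Alamar blue readout; 0% = bacteria only wells and 100% = bacteria with antibiotic wells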
# RecA splice inh: inhibitors of M. tuberculosis RecA intein splicing; 290,000 tested, 0.75% active; P9WHJ3; inhibition, %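 (about 9 µM by stock and volumes)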; cell-free RecA intein splicing, fluorescence; in the data active = inhibition above about 30%; inconclusive = no clear call, values can overlap the other calls;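 also: 0% = vehicle wells and 100% = reference inhibitor control wells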
# Target sequence (P9WHJ3 whole entry, looked up, canonical isoform): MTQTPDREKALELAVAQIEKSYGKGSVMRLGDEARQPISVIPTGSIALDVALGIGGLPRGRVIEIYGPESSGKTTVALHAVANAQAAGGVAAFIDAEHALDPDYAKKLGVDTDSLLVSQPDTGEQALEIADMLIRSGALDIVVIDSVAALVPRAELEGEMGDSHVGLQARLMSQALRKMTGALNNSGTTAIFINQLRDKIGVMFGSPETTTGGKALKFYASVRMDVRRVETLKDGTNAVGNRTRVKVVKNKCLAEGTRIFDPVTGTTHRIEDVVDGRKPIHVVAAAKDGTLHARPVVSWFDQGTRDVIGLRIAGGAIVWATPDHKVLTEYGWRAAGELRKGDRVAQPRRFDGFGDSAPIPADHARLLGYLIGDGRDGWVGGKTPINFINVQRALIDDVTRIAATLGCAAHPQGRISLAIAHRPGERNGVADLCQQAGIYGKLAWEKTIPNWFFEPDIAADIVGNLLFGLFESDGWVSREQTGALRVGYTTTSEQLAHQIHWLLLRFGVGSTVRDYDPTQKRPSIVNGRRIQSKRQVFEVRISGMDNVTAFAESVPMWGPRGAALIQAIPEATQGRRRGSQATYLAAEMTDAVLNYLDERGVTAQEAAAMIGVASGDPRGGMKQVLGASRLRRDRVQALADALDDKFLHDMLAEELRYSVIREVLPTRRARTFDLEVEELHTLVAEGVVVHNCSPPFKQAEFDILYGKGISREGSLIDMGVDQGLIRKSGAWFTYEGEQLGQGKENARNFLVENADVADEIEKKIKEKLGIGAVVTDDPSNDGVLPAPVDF
# Arbovirus anti repeat: second read-out of Arbovirus anti, no call of its own (marks repeat the call); inhibition, %; measured here: 10K subset replicate screen; many hits read low in the repeat;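 first of two repeat runs on a subset; 0% = infected and 100% = uninfected wells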
# * = called active by the depositor; ? = inconclusive; . = not tested or not shown. This is a subset; count on the stated rates, not on these rows.
SMILES,Mtb bLac sens,YopH inh,Arbovirus anti,Mtb growth,RecA splice inh,others
C/C(N)=C(/C#N)C(=O)CSc1nc2ccccc2c(=O)n1-c1ccc(C)cc1,3.0,-21.4,-1.3,9.8%,0.7,
CCCCCn1c(SCc2ccncc2)nc2cc(C(=O)NCc3ccco3)ccc2c1=O,57.0,-41.5,-18.8,11.0%,2.7,
CC1=C(C(=O)OCc2ccccc2)C(c2ccc([N+](=O)[O-])cc2)NC(=O)N1CCCCCC(=O)O (centres undefined),0.6,-7.5,12.4,-1.2%,0.8,
CCOc1ccc(NC(=O)NCCCCc2ccccc2)cc1,-3.0,.,.,.,1.6,
CN(C/C(O)=C(\C#N)c1ccccc1)C1CCCCC1,-3.6,-13.0,7.5,-5.2%,-1.7,
O=C(/C=C/c1ccc([N+](=O)[O-])cc1)c1cccnc1,99.9,-14.6,8.1,11.1%,2.1,
CSCCC(N=C(NS(=O)(=O)c1ccc(Br)cc1)c1ccccc1)C(=O)O (centres undefined),-9.3,.,3.2,-11.1%,1.1,
CCNc1nc(NC(C)(C)C)nc(SCC(N)=O)n1,-0.7,.,-3.0,3.5%,-0.6,
COc1ccccc1OCC(=O)Nc1nc(C)c(C)s1,-2.1,.,.,.,-3.2,
CCOC(=O)CCCCC(=O)c1[nH]c(=O)[nH]c1CSc1nc(C)cc(=O)[nH]1,-3.8,-46.3,-5.4,-2.0%,-2.0,
COc1ccc(NC(=O)c2cc(C)no2)cc1,-2.1,.,.,.,-1.0,
COC(=O)C(C)Sc1nnc2n(-c3cccc(C)c3)c(=O)c3c4c(sc3n12)CCCC4 (centres undefined),-7.0,-12.6,7.6,3.8%,-2.0,Arbovirus anti repeat=2.3
Cn1nnnc1SCC1=C(C(=O)O)N2C(=O)[C@@H](NC(=O)[C@H](O)c3ccccc3)[C@H]2SC1,-2.1,-28.9,8.8,-15.4%,-2.2,
CC(C(=O)Nc1sc2c(c1C#N)CCCCC2)N1C(=O)c2ccccc2C1=O (centres undefined),-9.2,-15.6,-6.8,-6.4%,3.0,
COc1ccc2nc(N3CCN(C(=O)c4ccc([N+](=O)[O-])o4)CC3)sc2c1,100.0,.,.,.,-1.7,
COc1ccc(S(=O)(=O)N2CCC(C(=O)NC3CCCCC3)CC2)cc1OC,-0.3,.,.,.,-0.5,
COC(=O)c1ccccc1NC(=O)NCc1ccccc1,-3.2,.,6.1,0.6%,-0.3,
CCOC(=O)c1cc(OCC(=O)NC(C)C(C)C)cc(C(=O)OCC)c1 (centres undefined),-4.7,-44.7,1.3,2.5%,3.9,
COc1ccc(Nc2cc(C(=O)NCCCN3CCOCC3)c3ccccc3n2)cc1,4.1,.,.,.,-7.9,
CCN(CC(=O)Nc1c(C(=O)OC)[nH]c2ccc(Cl)cc12)c1ccc2c(c1)OCO2,94.0,-52.8,8.6,3.3%,3.9,

# Reprinted from above for reference:
SMILES,Mtb bLac sens,YopH inh,Arbovirus anti,Mtb growth,RecA splice inh,others
COc1ccc(S(=O)(=O)N2CCC(C(=O)NC3CCCCC3)CC2)cc1OC,-0.3,.,.,.,-0.5,
COC(=O)c1ccccc1NC(=O)NCc1ccccc1,-3.2,.,6.1,0.6%,-0.3,
CCOC(=O)c1cc(OCC(=O)NC(C)C(C)C)cc(C(=O)OCC)c1 (centres undefined),-4.7,-44.7,1.3,2.5%,3.9,
COc1ccc(Nc2cc(C(=O)NCCCN3CCOCC3)c3ccccc3n2)cc1,4.1,.,.,.,-7.9,
CCN(CC(=O)Nc1c(C(=O)OC)[nH]c2ccc(Cl)cc12)c1ccc2c(c1)OCO2,94.0,-52.8,8.6,3.3%,3.9,

# (listing goes on)
SMILES,Mtb bLac sens,YopH inh,Arbovirus anti,Mtb growth,RecA splice inh,others
CCOc1ccc2[nH]c(=O)c(CN(CCO)C(=O)c3ccc(F)cc3)cc2c1,-9.5,-5.7,4.7,-2.2%,-0.1,
C/C(=N\N(Cc1ccccc1)c1ccccc1)c1ccncc1,-0.9,.,-6.1,?,10.3,
CC(C)(C)NC(=O)C(c1ccncc1)N(Cc1ccc(F)cc1)C(=O)c1ccc(-c2ccccc2)[nH]1 (centres undefined),69.5,.,-27.7,1.2%,9.2,
NC(=O)CSc1nnc(-c2ccc(S(=O)(=O)N3CCCCC3)cc2)n1-c1ccccc1,-7.4,-14.8,-5.4,-0.2%,.,
Cc1nn(-c2ccccc2)c(Cl)c1/C=N/NC(=O)c1ccn[nH]1,?,.,.,.,-1.2,
O=C(Cc1c(F)cccc1Cl)Nc1cccc(S(=O)(=O)NC2=NCCCCC2)c1,-11.4,.,.,.,3.8,
CS(=O)(=O)c1ccc(-c2cccc(NC(=O)c3ccco3)c2)nn1,-9.7,.,.,.,-0.1,
COC(=O)Cc1ccc(OC(=O)CCS(=O)(=O)c2ccc(C)cc2)cc1,-3.8,.,.,.,2.3,
COc1cccc2cc(C(=O)NCC3CCCO3)c(=O)oc12 (centres undefined),38.0,-12.6,7.9,.,-1.4,
COc1ccc(N2CCN(C(=O)Cn3ncc4c([nH]c5ccccc54)c3=O)CC2)cc1,-11.2,.,.,.,2.2,
CCN(CC)C(=O)c1ccccc1NS(=O)(=O)c1ccc(OC)c(C(=O)N2CCOCC2)c1,-2.4,.,.,.,0.8,
O=C(O)c1ccc(-c2nc3scc(-c4ccccc4)c3c(=O)[nH]2)cc1,-2.6,.,.,-7.9%,-1.7,
CCOC(=O)CC1C(=O)NCCN1C(=O)c1cccc(C(F)(F)F)c1 (centres undefined),1.2,5.7,0.2,-2.4%,-0.2,
Cc1cc(N2CCN(CC(O)C(F)(F)F)CC2)c2ccccc2n1 (centres undefined),-12.1,.,.,.,10.6,
Cc1cnc(NC(=O)c2ccc3c(c2)C(=O)N(Cc2ccco2)C3=O)s1,-10.8,-158.1,6.7,-8.6%,1.5,
COc1ccc(-c2cc(C(F)(F)F)nc(NC3CCCC3)n2)cc1OC,41.0,-42.7,-1.7,-1.9%,4.1,
CC(C)(C)C(=O)Nc1cccc(-c2nnc(-c3cccc(NC(=O)C(C)(C)C)c3)o2)c1,48.9,1.8,-16.0,22.1%,-2.0,
COc1cccc(/C=N/NC(=O)NC2CCCCC2)c1O,27.1,.,.,-1.1%,-9.8,
COc1ccc(N(CC(=O)N2CCc3ccccc32)S(=O)(=O)c2c(C)noc2C)cc1,0.0,-33.1,-5.0,-2.9%,-1.0,
O=C(CSc1nnc(NC(=O)c2ccco2)s1)Nc1ccccc1F,0.4,.,1.1,-1.6%,4.6,
CC(C)C[C@@H](CC#N)N1CCN(Cc2ccccc2)CCC1=O,-13.3,.,.,.,0.3,
CC(C)c1ccc(/C=C/C(=O)NCc2ccc(S(N)(=O)=O)cc2)cc1,7.1,.,7.0,6.2%,4.0,
Cn1nc(C(=O)N2CCCC2)c2ccccc2c1=O,-22.2,-32.3,1.9,2.1%,-4.3,
CC(=O)Nc1ccc(S(=O)(=O)Nc2nc3cc4c(cc3nc2Cl)OCCO4)cc1,10.6,.,.,-19.1%,-38.6,
O=C(Cn1ccc(C(F)(F)F)n1)N=Nc1c(O)[nH]c2ccc(Br)cc12,2.0,.,-9.4,7.9%,7.0,
CCn1c(COc2ccccc2C)nnc1SCC(=O)Nc1cc(C)on1,-11.4,-33.1,-9.1,-5.1%,0.8,
CC1=CC2=NC(=O)CC(C)(C(=O)N(CC(=O)NC3CCCC3)c3ccccc3C)N2C=C1 (centres undefined),-0.2,.,.,-6.5%,2.4,
Fc1cccc(/C=N/Nc2nc3ccccc3[nH]2)c1,33.3,.,-2.4,8.5%,-0.8,
CCCc1cc(C(=O)Nc2ccc(C(=O)c3ccc(F)cc3)cc2)n(C)n1,93.4,.,.,.,11.0,
O=C(CCN1C(=O)/C(=C\c2ccccc2F)SC1=S)N1CCCCC1,97.6,.,.,.,2.5,
N#Cc1ccccc1Sc1ccccc1C(=O)NCC(c1ccco1)N1CCCC1 (centres undefined),1.9,.,.,.,0.4,
O=C(NC1(C(F)(F)F)Oc2ccc(Cl)cc2O1)N1CCC2(CC1)OCCO2 (centres undefined),1.6,6.7,-7.8,-2.5%,-5.5,
Cc1noc(C(=O)Nc2cccc(Cl)c2)c1Cl,5.9,.,.,.,-1.3,
CC(=C/C(=O)O)/C=C/c1cccs1,58.1,-42.7,5.4,-16.1%,-0.7,
CC(=O)N(Cc1ccco1)c1nc(C(=O)Nc2ccc(Cl)cc2)c(C)s1,5.3,-32.6,-15.7,48.8%,3.2,
CC(=O)c1cc(NC(=O)c2ccc(Cl)cc2)c(=O)oc1/C=C/N(C)C,-8.0,-36.3,3.5,-16.4%,-2.3,
C[C@@H](C(=O)Nc1ccccc1N1CCOCC1)N1C(=O)C2CC=CCC2C1=O (some centres undefined),-14.7,-6.2,8.2,-5.8%,2.0,
Cc1ccc(/C=N/NC(=O)CNC(=O)COc2ccccc2)o1,3.1,-14.6,13.8,-4.2%,-2.3,
Cc1cccc(N(C(=O)Cn2nnc3ccccc32)C(C(=O)NCc2ccco2)c2ccncc2)c1 (centres undefined),-3.8,-39.5,2.5,-4.6%,0.3,
CCOc1ccc(S(=O)(=O)NCCC(=O)Nc2cccc(C(=O)OC)c2)cc1,5.0,.,.,.,1.8,

# Ordered by number of heavy atoms (lowest first): part of the list above
SMILES,Mtb bLac sens,YopH inh,Arbovirus anti,Mtb growth,RecA splice inh,others
O=C(CSc1nnc(NC(=O)c2ccco2)s1)Nc1ccccc1F,0.4,.,1.1,-1.6%,4.6,
CCOC(=O)CCCCC(=O)c1[nH]c(=O)[nH]c1CSc1nc(C)cc(=O)[nH]1,-3.8,-46.3,-5.4,-2.0%,-2.0,
COc1ccc(N(CC(=O)N2CCc3ccccc32)S(=O)(=O)c2c(C)noc2C)cc1,0.0,-33.1,-5.0,-2.9%,-1.0,

# The listing picks up, repeating the 7 entries before the break.
SMILES,Mtb bLac sens,YopH inh,Arbovirus anti,Mtb growth,RecA splice inh,others
CC(=C/C(=O)O)/C=C/c1cccs1,58.1,-42.7,5.4,-16.1%,-0.7,
CC(=O)N(Cc1ccco1)c1nc(C(=O)Nc2ccc(Cl)cc2)c(C)s1,5.3,-32.6,-15.7,48.8%,3.2,
CC(=O)c1cc(NC(=O)c2ccc(Cl)cc2)c(=O)oc1/C=C/N(C)C,-8.0,-36.3,3.5,-16.4%,-2.3,
C[C@@H](C(=O)Nc1ccccc1N1CCOCC1)N1C(=O)C2CC=CCC2C1=O (some centres undefined),-14.7,-6.2,8.2,-5.8%,2.0,
Cc1ccc(/C=N/NC(=O)CNC(=O)COc2ccccc2)o1,3.1,-14.6,13.8,-4.2%,-2.3,
Cc1cccc(N(C(=O)Cn2nnc3ccccc32)C(C(=O)NCc2ccco2)c2ccncc2)c1 (centres undefined),-3.8,-39.5,2.5,-4.6%,0.3,
CCOc1ccc(S(=O)(=O)NCCC(=O)Nc2cccc(C(=O)OC)c2)cc1,5.0,.,.,.,1.8,
O=C(O)c1cccc(S(=O)(=O)N2CCCC2)c1,-5.1,-6.7,-1.1,-9.5%,0.8,
O=C(NC(=S)NCc1ccccc1)c1ccccc1[N+](=O)[O-],0.7,.,-3.1,-6.1%,-1.3,
COC(=O)c1sccc1NC(=O)c1ccc(Br)s1,-2.9,-0.7,5.4,-4.3%,0.4,
CC1Cc2ccccc2N1C(=O)CCS(=O)(=O)c1ccc2c(c1)NC(=O)CS2 (centres undefined),-5.0,.,.,.,2.0,
COc1ccc(CN2CCCC(C(=O)N3CCCCC3)C2)cc1OC (centres undefined),-3.3,.,.,.,-0.6,
Cc1[nH]c2ccccc2c1-c1csc(NC(=O)CSCC(=O)O)n1,54.9,.,.,-4.0%,3.7,
O=C(OC(C(=O)NC1CCCC1)c1ccccc1F)c1ccco1 (centres undefined),?,-39.3,3.6,6.8%,2.1,
CN(C)C(N)=NCCC[C@H](N)C(=O)O,1.0,.,.,-8.8%,-3.6,
O=C1C2(c3ccccc3)CN3CN(C2)CC1(c1ccccc1)C3,5.9,-11.4,3.9,-0.3%,-0.6,
O=C(/C=C/c1ccccc1)Nc1ccc2c(c1)C(=O)NC2=O,-0.7,.,-2.4,3.5%,-2.1,
CC(C)(C)c1ccc(C(=O)N2CCCN(C(=O)c3ccc(C(C)(C)C)cc3)CC2)cc1,1.8,-2.2,6.9,9.4%,2.2,
CCN(C(=O)Nc1ccccc1)c1ccccc1,-3.2,-32.8,-5.9,-6.8%,-3.0,
